D2 agonist = human D2 receptor agonism in beta-arrestin assay; DiscoveRx PathHunter D2 beta-arrestin, luminescence, 90 min; 100% = 57 uM dopamine signal; activation, % (no concentration beside the values); 360,000 tested, 0.084% active; AID 624465; in the data active = activation above about 40%; inconclusive = about 15% to 40%; inactive = below about 15%; note: compound concentration not given in the record; the text of the record calls up to 30% inactive
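DiscoveRx PathHunter D2 beta-arrestin cells (2,100/well) attached overnight, then compound-stimulated 90 min at 37 C in HBSS/10 mM HEPES/0.1% Tween-20 buffer; beta-galactosidase complementation read by luminescence after 1 h at ambient temperature. Dopamine 57 uM final (EC100) as control.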
CtBP-E1A blk = blocks the CtBP interaction with E1A; activity change, % (no concentration beside the values); 340,000 tested, 0.49% active; AlphaScreen GST-E1A/His-CtBP binding, 1536-well; hits give low values; control for the full effect not named in the record; in the data active means activity change below about -65%; inconclusive means about -30% to -65%; inactive means above about -30%; note: % is set by controls: 0 for no effect and ±100 for the full control effect; compound concentration not given in the record
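Protein mix (5X: 125 nM each GST-E1A, His-CtBP) was incubated with pinned compound 2 h at 37 deg C in dark, in 50 mM Tris pH 8.0 buffer with 300 mM NaCl. Glutathione donor and nickel acceptor beads followed; AlphaScreen signal read after 1 h.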
TRPML1 ag = agonists of human TRPML1 channel; TRPML1-expressing cells, Ca2+ dye fluorescence, FDSS; host cell line not named in the record; reference of the full effect not given here; 410,000 tested, 0.12% active; activation, % (test concentration not listed); in the data active = activation above about 50%; inconclusive = about 30% to 50%; inactive = below about 30%; note: 0% is about no effect; the text of the record puts the active cut at 80%
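TRPML1-DL cells, Tet-induced overnight (~16 h, 37 degrees C), loaded 45-90 min at room temperature with Ca8 no-wash calcium dye plus quencher. FDSS fluorescence: 10 s baseline, compound pin-transfer, 110 s agonist read, then EC80 54-4 (4uM final) and 110 s antagonist read.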
TRPML1 inh = human mucolipin-1 channel inhibition. activity change, negative = inhibition, % (test concentration not listed). TRPML1-inducible cells, Ca2+ dye fluorescence, FDSS; hits give low values; inhibition of EC80 agonist-evoked calcium signal. 390,000 tested, 0.02% active; in the data active means activity change below about -50%; inconclusive means about -30% to -50%; inactive means above about -30%;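 note: stimulus is agonist 54-4 at its EC80 concentration; % is set by controls: 0 for no effect and ±100 for the full control effect; compound concentration not given in the record; the text of the record puts the active cut at -80%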
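TRPML1-DL cells, Tet-induced overnight (~16 h, 37 °C) at 1,500 cells/well, were loaded with Ca8 no-wash dye plus quencher for 45-90 min at room temperature. Compounds were pinned during FDSS kinetic reading; agonist 54-4 at EC80 (4 uM final) then added.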
PINK1 modulator = modulators of PINK1 expression; 410,000 tested, 0.2% active; PINK1 immunofluorescence, high-content cytometry, 24 h; Potency, µM (series often up to 76.6 µM), for the others: at the highest dose activation (PINK1 increase), hits mostly activators; active = well fitted activation curve with a large enough effect; inconclusive = small, poorly fitted or top-dose-only effect; inactive = flat fitted curve, though single readings scatter; cell line not stated here;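 note: potency is the fitted concentration of half-maximal effect; % of control where 0% means no effect; nearly all actives have a fitted effect of over 65% in size; a mitochondrial uncoupler was the plate control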
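Measures PINK1 amount and localization on or inside mitochondria by immunofluorescence. Stable cells get compounds at 5 concentrations for 24 hours before fixation and staining; CCCP controls included.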
Six1-Eya2 inh = inhibitors of human Six1/Eya2 interaction. AlphaScreen GST-Six1/His-Eya2 binding, biochemical; hits give low values; control for the full effect not named in the record. activity change, % (concentration not given with the values). 360,000 tested, 0.56% active; in the data active = activity change below about -65%; inconclusive = about -30% to -65%; inactive = above about -30%; note: % is set by controls: 0 for no effect and ±100 for the full control effect
Target sequence (O00167 whole entry, looked up): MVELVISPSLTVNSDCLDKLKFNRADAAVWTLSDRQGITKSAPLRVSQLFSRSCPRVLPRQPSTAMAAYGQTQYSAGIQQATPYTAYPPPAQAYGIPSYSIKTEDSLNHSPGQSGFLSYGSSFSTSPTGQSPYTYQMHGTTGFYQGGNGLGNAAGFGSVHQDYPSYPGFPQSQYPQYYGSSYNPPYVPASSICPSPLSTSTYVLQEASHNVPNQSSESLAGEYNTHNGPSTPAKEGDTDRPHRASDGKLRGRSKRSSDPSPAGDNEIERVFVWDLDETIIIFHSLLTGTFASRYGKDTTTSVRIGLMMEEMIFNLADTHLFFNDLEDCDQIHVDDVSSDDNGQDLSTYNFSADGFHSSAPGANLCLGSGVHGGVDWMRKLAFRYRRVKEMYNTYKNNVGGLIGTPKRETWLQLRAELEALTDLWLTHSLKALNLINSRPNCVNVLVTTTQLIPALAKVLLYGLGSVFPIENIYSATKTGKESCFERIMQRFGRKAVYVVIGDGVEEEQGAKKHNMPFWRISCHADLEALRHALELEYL
Target sequence (Q15475 whole entry, looked up): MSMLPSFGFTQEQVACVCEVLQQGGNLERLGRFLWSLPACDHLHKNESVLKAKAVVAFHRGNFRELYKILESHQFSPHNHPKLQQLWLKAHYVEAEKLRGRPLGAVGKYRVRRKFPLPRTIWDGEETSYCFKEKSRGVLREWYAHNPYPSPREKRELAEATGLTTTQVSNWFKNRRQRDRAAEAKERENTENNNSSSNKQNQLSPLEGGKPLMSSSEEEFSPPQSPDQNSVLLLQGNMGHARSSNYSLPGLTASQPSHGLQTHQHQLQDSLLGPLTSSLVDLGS
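Homogeneous AlphaScreen proximity assay pairing GST-Six1 with His-tagged Eya2 (added as 5X mix: 250 nM and 500 nM) in 50 mM Tris pH 8.0, 300 mM NaCl, 1 mM TCEP. Glutathione donor and nickel acceptor beads; 1 h, 37 °C, dark.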
Active calls of the source: *; ? = inconclusive; / = no result given; [ ] = dose if it differs, or a comment.

SMILES	D2 agonist	CtBP-E1A blk	TRPML1 ag	TRPML1 inh	PINK1 modulator	Six1-Eya2 inh
COc1cccc(NC(=O)C2(C)CCN2C(=O)Cc2ccc(-c3ccccc3)cc2)c1 (stereo unspecified)	7.2	4.8	1.0	/	4.1%	1.3
CCOc1ccc(C(=O)Nc2cccc(NC(=O)c3ccco3)c2)cc1Cl	/	/	0.7	7.2	2.2%	/
CCN(C(=O)CSc1nc2ccc([N+](=O)[O-])cc2s1)c1c(N)n(Cc2ccccc2)c(=O)[nH]c1=O	12.1	/	-0.9	-11.7	1.1%	-5.9
O=C(COc1ccc(F)cc1)OCc1cc(=O)n2nc(C3CCCCC3)sc2n1	/	/	-0.7	?	0.4%	/
Cc1cccc(C)c1OCc1cc(=O)n2c3c(sc2n1)CCCC3	/	/	0.2	15.4	3.4%	/
CCN(CC(=O)Nc1ccc(OC)cc1)CC(=O)N1CC(=O)Nc2ccccc21	2.1	/	-0.6	-4.5	-0.5%	-7.4
Cc1cc(Br)ccc1NC(=O)c1c(C)oc2ncnc(N3CCCCC3)c12	/	/	0.6	1.7	-0.2%	/
COc1ccc(NC(=O)CN(C)C(=O)CCc2nc3cc(S(=O)(=O)N4CCOCC4)ccc3n2C)cc1	2.6	-21.1	-0.4	-15.6	4.0%	-1.3
Cc1cc(=O)[nH]c(SCC(=O)Nc2ccc3c(c2)CCC3)c1C#N	5.0	/	0.2	8.3	1.1%	-4.8
CC(C)(C)OC(=O)C[C@@H]1C/C=C\C[C@H](CC(=O)NCCO)C(=O)N2CCC[C@@H]2COC1=O	0.7	2.2	-0.8	11.7	0.2%	9.9
CCCCNC(=O)CC1N=C2c3ccccc3N=C(SCC(=O)Nc3ccccc3OC)N2C1=O (stereo unspecified)	-0.7	17.3	0.7	-5.1	-1.8%	5.3
Cc1cc(-c2ccco2)n(CC(=O)O)n1	1.1	1.0	-0.2	-15.9	0.1%[38.3 µM]	2.6
Nc1ncn(CC(=O)c2ccccc2)n1	2.8	/	0.2	0.8	0.6%	18.5
O=C(O)c1cccc(COc2ccccc2Cl)c1	-4.2	5.5	0.0	7.4	11.5%[38.3 µM]	0.2
O=c1oc(-c2ccco2)nc2sc3c(c12)CCCC3	-1.8	-2.5	-0.2	-1.7	/	-3.1
CCC(C)NC(=O)C1(C)CCC(=O)N1CCc1ccc(OC)c(OC)c1 (stereo unspecified)	2.8	-0.3	-0.1	3.4	-3.4%[38.3 µM]	0.7
CCn1c(COc2ccc(OC)cc2)nnc1SCC(=O)Nc1cc(OC)ccc1OC	0.2	-12.8	1.7	-8.1	-2.8%	-12.3
CC1(C(=O)NCc2ccccc2Br)CCN1Cc1ccc2ccccc2c1 (stereo unspecified)	-7.9	0.3	0.9	/	8.5%	-10.4
COc1ccc2nc(-c3ccccc3)cc(OC)c2c1	-0.4	5.1	1.4	8.7	0.9%	2.1
O=C(NCC(=O)N1CCC(N2CCCCC2)CC1)C1CCCCC1	-1.0	2.7	-0.1	-19.0	1.2%	-0.3
CC1CN(C2CCCCC2)c2nc3c(c(=O)[nH]c(=O)n3C)n2C1 (stereo unspecified)	-2.8	-9.5	1.4	-19.3	2.3%	?
Cc1ccc(S(=O)(=O)N(C)c2ccc(NS(C)(=O)=O)cc2)cc1	-2.9	-0.5	1.5	-0.3	-1.6%	-0.3
Cc1sc2ncn(CC(=O)N3CCN(c4ccc(F)cc4)CC3)c(=O)c2c1S(=O)(=O)N1CCN(c2ncccn2)CC1	/	/	-0.7	-11.0	0.4%	/
O=C(CN1CCc2ccccc21)NC(=O)NC1CCCCC1	-3.3	-7.6	0.6	13.3	3.4%	0.0
NS(=O)(=O)c1ccc(CCNC(=O)COC(=O)/C=C/c2cc(Br)ccc2F)cc1	7.9	23.1	3.8	-3.5	-0.9%	15.1
Next entries.
SMILES	D2 agonist	CtBP-E1A blk	TRPML1 ag	TRPML1 inh	PINK1 modulator	Six1-Eya2 inh
COc1ccccc1NC(=O)Cn1nnc(C(=O)Nc2ccccc2)c1N	-1.6	-7.1	1.2	-2.9	0.6%	-1.5
OCc1cn(-c2ccccc2)nc1-c1cccnc1	-2.3	-7.1	5.2	29.9	-1.2%	4.4
O=C(COC(=O)c1nc(Cl)ccc1Cl)c1ccc(Cl)s1	-5.8	/	1.6	-9.4	-1.5%	5.9
COc1ccc(C(=O)OCC(=O)NCc2ccco2)cc1OC	-0.6	0.4	-0.7	-6.9	0.0%	-16.0
O=C(CC1c2ccccc2Oc2ccccc21)Nc1ccccc1F	-7.3	6.4	0.5	11.3	8.0%	14.5
O=C(NC12CC3CC(CC(C3)C1)C2)C1CC(=O)N(c2ccc(Br)cc2)C1 (stereo unspecified)	-0.9	2.3	1.5	16.9	1.2%	-2.2
O=C1Nc2ccccc2S/C1=C/NCc1ccccc1Cl	-2.1	-1.4	0.4	-5.1	4.5%	-12.6
O=C1CC(c2nnc(Cc3ccc(Cl)cc3)o2)CN1c1ccccc1 (stereo unspecified)	/	/	0.8	-7.6	-1.5%	/
O=S1(=O)N=C(N2CCCC2)c2ccccc21	-3.2	-0.2	-0.1	10.2	3.0%	-20.0
Cc1ccc(C(=O)/C=C/Nc2cccc([N+](=O)[O-])c2)o1	-3.2	1.1	-0.1	-0.7	1.1%	-19.9
O=C(COC(=O)Cc1ccc(S(=O)(=O)N2CCOCC2)s1)NCc1ccc(Cl)cc1	-1.0	-10.4	0.1	-8.4	0.3%	1.3
COc1ccc(Nc2nc(C)cc(C)c2C(N)=O)c(OC)c1	1.4	4.5	0.1	-1.7	2.8%[38.3 µM]	-1.1
CC(C)(C)OC(=O)CNC(=O)c1[nH]cnc1C(=O)NCC(=O)OCc1ccccc1	?	0.6	-0.6	-10.3	1.3%	-0.2
O=C(NCC(=O)N1CCC(Cc2ccccc2)CC1)c1ccccc1F	-2.8	-13.7	-0.1	23.6	0.4%	-1.4
COc1ccc(OCC(=O)OCc2cc(=O)n3cc(C)sc3n2)cc1	/	/	0.7	8.4	-0.5%	/
Cc1ccc(N2C(=O)C3C4C=CC(CNC(=S)Nc5ccc(F)cc5)(O4)C3C2=O)cc1 (stereo unspecified)	-1.9	2.7	-0.3	-8.0	3.4%	1.9
O=C(O)c1ccc2oc(SCC(=O)N3CCCCC3)nc2c1	-3.6	4.9	0.2	23.4	-0.1%	9.9
O=C(CN1C(=O)COc2ccc(S(=O)(=O)N3CCOCC3)cc21)N1CCN(c2ccc(F)cc2)CC1	/	/	3.1	1.1	-0.3%	/
COc1ccc(CCNS(=O)(=O)c2ccc(Cl)s2)cc1OC	-0.1	-4.6	0.9	-9.0	-1.3%	2.8
CCC(=O)N1CCc2cc(OC)c(OC)cc2C1COc1ccc(C(=O)OC)cc1 (stereo unspecified)	-2.0	-2.0	0.5	-1.5	-2.5%[38.3 µM]	-3.2
CCc1nc2ccc(C(=O)NC3CCN(Cc4ccccc4)CC3)cn2c1N(C)Cc1ccc(N(C)C)cc1	3.9	?	-1.0	/	2.0%	?
COC(=O)c1nn(-c2ccc(OC)cc2)c(=O)c2c(N)sc(C)c12	-5.2	-24.4	5.0	9.9	-3.1%	-26.0
O=C(O)C1=C[C@H](c2coc3ccccc3c2=O)C[C@H](OCCCCO)O1	-4.2	26.2	0.0	-11.7	1.0%	23.8
COc1ccc(NCc2nnc(SCC(=O)c3ccc(C)cc3)o2)cc1	-1.6	-10.9	-0.1	-1.6	-0.5%	-12.8
O=C(c1cccs1)N1CCCc2ccccc21	-0.2	6.7	-0.1	-6.7	-1.7%[38.3 µM]	2.1
Continuation:
SMILES	D2 agonist	CtBP-E1A blk	TRPML1 ag	TRPML1 inh	PINK1 modulator	Six1-Eya2 inh
CCc1nnc(NC(=O)CSc2nc3ccc(OC)cc3[nH]2)s1	-5.4	-1.5	1.5	44.3	-1.3%	9.5
C[N+]1(C)CC2=Cc3ccccc3CC2C1 (stereo unspecified)	-3.7	-1.9	0.4	-0.4	0.1%	-3.7
Cc1ccc(OCC(=O)Nc2ccc3nn(-c4ccc(Cl)cc4)nc3c2)cc1	/	/	0.7	22.5	-0.4%	/
Cc1ccc(NC(=O)C(C)Sc2nc3nc(C)cc(C)n3n2)cc1 (stereo unspecified)	-1.8	-11.2	0.3	2.9	-0.8%	-4.3
COc1ccc(S(=O)(=O)N(Cc2ccccc2)c2ccccc2C(=O)Nc2ccccc2C(=O)NCc2ccco2)cc1	-1.7	-5.7	0.3	-8.9	1.1%	-5.2
O=C(O)CCC(=O)Nc1ccc(-c2nnc(-c3ccco3)o2)cc1	-8.4	-1.4	-0.8	-5.5	2.3%	-24.6
Cc1nc(Oc2ccc(Cl)cc2)c2oc3ccccc3c2n1	0.6	12.7	-1.4	2.7	12.2%	-1.0
COc1ccc(-n2c(Cc3cccn3C)nnc2SCC(=O)Nc2cccc(OC)c2)cc1	0.9	-9.9	2.0	16.7	0.6%	-20.3
OC(COc1ccc2c(c1)OCO2)CN1CCCC1 (stereo unspecified)	1.7	0.8	0.5	23.6	-1.3%	0.4
COCCN(C(=O)CCC(=O)Nc1ccccn1)C(C(=O)NCCC(C)C)c1ccc(OC)cc1 (stereo unspecified)	-5.1	1.4	0.9	7.3	0.7%	16.0
O=C(c1ccco1)N1CCN(C2CC(=O)N(c3ccccc3)C2=O)CC1 (stereo unspecified)	-1.9	-6.0	-0.6	-1.3	0.6%	1.5
CCOC(=O)C1CCN(C(=O)CCNC(=O)Cn2cnc3ccccc3c2=O)CC1	-2.0	23.0	0.1	-15.2	2.2%	8.0
CC(=C1SC(=S)NC1=O)c1ccccc1	-6.7	-1.4	-0.6	-17.7	-3.0%	6.3
Cc1cc(NC(=O)CN(C)CCOc2ccccc2)ccc1Br	2.0	13.6	3.6	30.3	5.6%	13.1
OC(C#CCN1CCCC1)c1ccccc1 (stereo unspecified)	-0.8	8.2	0.7	7.0	0.9%[38.3 µM]	2.1
CCc1nc(C#N)c(N2CCOCC2)o1	-0.8	2.0	1.1	-6.3	-2.1%	3.0
N#C/C(=C\c1c(Cl)cccc1Cl)c1nc2ccccc2o1	?	0.0	-0.4	16.5	0.9%	-14.8
O=C(NNC(=O)c1ccc(F)c(S(=O)(=O)N2CCOCC2)c1)c1ccc(Br)cc1	-0.7	/	-0.8	35.6	1.8%	-4.6
Cc1cc(O)ccc1NC1=CC(=O)CC(C)(C)C1	-2.1	0.0	0.6	-12.7	-0.2%	3.1
C[C@H](CO)N1C[C@H](C)[C@@H](CN(C)Cc2ccc(F)cc2)Oc2ncc(Br)cc2C1=O	-4.7	5.8	-0.7	-6.1	1.4%	5.2

One compound at a time, from the list above. Screens in order: D2 agonist, CtBP-E1A blk, TRPML1 ag, TRPML1 inh, PINK1 modulator, Six1-Eya2 inh
O=C(NC12CC3CC(CC(C3)C1)C2)C1CC(=O)N(c2ccc(Br)cc2)C1 (stereo unspecified) is listed with -0.9, 2.3, 1.5, 16.9, 1.2%, -2.2
Cc1cc(NC(=O)CN(C)CCOc2ccccc2)ccc1Br is listed with 2.0, 13.6, 3.6, 30.3, 5.6%, 13.1
O=S1(=O)N=C(N2CCCC2)c2ccccc21 is listed with -3.2, -0.2, -0.1, 10.2, 3.0%, -20.0
